# Screening data: PubChem BioAssay, several laboratories
# PABP FP inh – PABP poly(A) RNA binding inhibitors, primary screen, biochemical, fluorescence polarization, uHTS; Polyadenylate-binding protein 1 (Homo sapiens), P11940; inhibition, % at 35 µM; 290,000 compounds, 1% hits;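 active = 50% or more with normal probe brightness, or confirmed in later tests; about a fifth of its hits are not listed in these tables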;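 note: calls also rest on retests at 20 µM and on dose response follow-up; controls were probe without protein and protein plus probe with vehicle; some compounds called inactive have numbers as strong as hits; many hits fall short of the cut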
# Target sequence (P11940 whole entry, looked up): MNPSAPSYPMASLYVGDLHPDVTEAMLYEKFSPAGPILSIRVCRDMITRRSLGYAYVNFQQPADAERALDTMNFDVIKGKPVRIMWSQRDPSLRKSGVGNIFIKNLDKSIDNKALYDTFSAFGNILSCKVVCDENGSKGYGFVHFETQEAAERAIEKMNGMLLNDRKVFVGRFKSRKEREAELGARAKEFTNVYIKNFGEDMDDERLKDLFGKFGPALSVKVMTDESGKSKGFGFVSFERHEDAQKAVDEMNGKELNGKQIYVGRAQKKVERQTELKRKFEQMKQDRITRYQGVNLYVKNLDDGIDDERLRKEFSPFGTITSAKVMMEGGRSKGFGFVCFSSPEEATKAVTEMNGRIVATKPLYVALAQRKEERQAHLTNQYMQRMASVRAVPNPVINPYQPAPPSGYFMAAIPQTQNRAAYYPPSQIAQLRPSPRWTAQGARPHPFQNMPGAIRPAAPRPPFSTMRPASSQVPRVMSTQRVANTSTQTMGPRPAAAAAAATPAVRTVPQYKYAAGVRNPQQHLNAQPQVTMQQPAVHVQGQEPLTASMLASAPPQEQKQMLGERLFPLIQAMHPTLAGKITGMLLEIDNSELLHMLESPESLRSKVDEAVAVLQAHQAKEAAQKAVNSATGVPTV
# MT1-MMP act inh – blockers of MT1-MMP proenzyme processing, primary screen, HT1080 RFP-PRO-GFP cells, GFP/RFP fluorescence. Matrix metalloproteinase-14 (Homo sapiens), P50281. GFP/RFP ratio fluorescence, overnight; percent of plate control window, DMSO zero. GFP/RFP ratio change, % at 20 µM. 360,000 compounds, 0.061% hits. AID 651647, 2012;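 active = GFP/RFP ratio change of at least 30% with cell ATP level not reduced by more than half and red fluorescence within 50% of control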; note: strong numbers were not always called active
#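 Assay system: HT1080 cells carrying an RFP-PRO-GFP reporter | Dosing: Single dose of 20 µM compound, 1% DMSO final | Incubation: Cells overnight before dosing, compound overnight, 37 °C, 5% CO2 | Evaluation: GFP/RFP fluorescence ratio | Control set: DMSO and RFP-L50D-GFP cell wells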
# UUG fidelity – modulators of yeast start codon fidelity, primary screen, whole organism, S. cerevisiae, single point, plate reader | activity score, % at 18.7 µM | S. cerevisiae UUG-firefly luciferase reporter, luminescence/redox ratio | 350,000 compounds, 0.13% hits;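 active = replicate mean at a twofold rise or more, about +100% in these data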;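 note: firefly luciferase made from a UUG start codon reports start codon fidelity; reporter light over untreated wells divided by growth signal over untreated wells; some hits fall short of that in this replicate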
# HIV Env fusion – inhibitors of HIV-1 Env-driven cell-cell fusion, primary screen, HeLa-JRFL effector, CEM21 target cells, luciferase; inhibition, % at 12.3 µM; 360,000 compounds, 1.1% hits; AID 651610, 2012;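 active = mean replicate inhibition score of at least 50 and every replicate individually at or above 50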;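 note: 0% = plate neutral controls and 100% = maraviroc near 300 nM; one replicate is shown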
# eIF4H FP inh – human eIF4H binding inhibitors, primary screen, translation initiation inhibitor project, biochemical, uHTS, fluorescence polarization. Eukaryotic translation initiation factor 4H (Homo sapiens), Q15056. 290,000 compounds, 0.94% hits. eIF4H fluorescence polarization binding assay. AID 2012, 2009. inhibition, % at 35 µM;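 active = 50% or more with normal probe brightness, or confirmed in later tests; about a fifth of its hits are not listed in these tables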;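 note: calls also rest on retests at 20 µM and on dose response follow-up; 0% = protein and probe with vehicle and 100% = probe without protein; strong numbers were not always called active; many hits fall short of the cut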
# Rce1 inhib – yeast Rce1p protease inhibitors, primary screen, biochemical, fluorescence, cell-free homogeneous | CAAX prenyl protease 2 (Saccharomyces cerevisiae (strain ATCC 204508 / S288c)), Q03530 | yeast membranes, quenched prenylated peptide cleavage fluorescence | calls only | 290,000 compounds, 0.27% hits | AID 2563, 2010;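 active = fall in fluorescence gain of 50% or more versus controls, with final raw signal at or below 3038400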;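 note: plate controls were neutral control wells for no effect and wells lacking membranes for full effect; tested at 10 µM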
# CSC inhib – cancer stem cell viability inhibitors, primary screen, luminescence; inhibition, % at 7.5 µM; AID 2717, 2010; cancer stem cell-like cells viability; 300,000 compounds, 1.1% hits;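 active = mean at 75% or more and at least half the replicates too; tested in HMLE shEcad cells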;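 note: 0% = median of negative and 100% = median of positive control wells; the first replicate is given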
# eIF4H FP inh retest – recorded beside eIF4H FP inh, whose call it bears; inhibition, %; compound at 20 µM; confirmation average;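 mean of two retest wells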
# PABP FP inh retest – second read-out of PABP FP inh, no call of its own (marks repeat the call); inhibition, %; compound at 20 µM; confirmation repeats;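 mean of two retest wells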
# MT1-MMP act inh RFP – second read-out of MT1-MMP act inh, no call of its own (marks repeat the call); RFP signal change, %; measured here: RFP expression control read;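 0 = vehicle wells; hits needed this value within 50% of zero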
# Active calls of the source: *; i = inactive; · = not tested or not shown; & = joins results of further samples.
SMILES,PABP FP inh,MT1-MMP act inh,MT1-MMP act inh RFP,UUG fidelity,HIV Env fusion,eIF4H FP inh,Rce1 inhib,CSC inhib,others
COc1ccc(NS(=O)(=O)c2ccc3nc(COc4ccc(C#N)cc4)[nH]c3c2)cc1,-1,5,3,·,·,2,i,9,
CCOC(=O)C1CCN(C2CC(=O)N(c3ccc(OCC)cc3)C2=O)CC1 (stereo not given),-4,-2,0,-12,·,8,i,-7,
CC1C(=O)N(Cc2cn(Cc3ccco3)nn2)CCS(=O)(=O)N1Cc1ccc(-c2ccc(F)cc2Cl)cc1 (stereo not given),·,-5,-14,-7,2,·,·,·,
CC1=C(C(=O)N2CCCCCC2)CC(CC(=O)NC2CCCC2)C(=O)N1Cc1ccccc1 (stereo not given),·,-1,3,-2,-1,·,·,·,
COc1ccc(S(=O)(=O)N2CCC(C(=O)N[C@@H](C)C(=O)N3CCCC3)CC2)cc1,·,-3,2,-10,2,·,·,·,
COCCCNc1nc(=S)[nH]c2cc(OC)c(OC)cc12,14,-1,2,15,·,-2,i,8,
O=C(Nc1ccccc1F)Nc1cccc2ccc(O)cc12,28,5,-6,-17,7,34,i,23,
CC1CCN(C(CNS(=O)(=O)c2ccccc2)c2ccccc2)CC1 (stereo not given),·,26,-3,0,·,·,·,12,
COc1ccc(CCN2CCCC(CN(C)Cc3cc(Cl)c(O)c(OC)c3)C2)cc1 (stereo not given),-6,0,1,-5,-18,0,i,-2,
Cc1nn(Cc2cccc(C(=O)NN)c2)c(C)c1Cl,-5,2,-5,2,4,4,i,-14,
O=C1CCCC(=O)C1C1c2ccccc2CCN1C(=O)CCl (stereo not given),9,2,3,-4,10,-2,i,4,
O=C(NCCc1ccccc1)C1CC(=O)N(c2ccc3c(c2)OCCO3)C1 (stereo not given),·,-2,3,·,-2,·,i,-11,
COc1ccnc(CN(C)C(=O)C2CCC(=O)N(Cc3cccc(C(F)(F)F)c3)C2)c1 (stereo not given),5,2,3,-5,-7,2,i,-9,
COc1cccc(CNc2nnnn2C)c1,-6,-1,2,-13,7,5,i,-1,
CO/N=C(\Cn1ncc(N2CCCC2)c(Br)c1=O)c1ccc(Cl)cc1,-1,-1,-4,-9,·,0,i,6,
CC(Oc1ccccc1F)C(=O)/C=C/N(C)C (stereo not given),2,-3,0,·,·,-6,i,-7,
O=c1[nH]c(C2CCN(S(=O)(=O)c3ccccc3F)CC2)nc2c1nnn2Cc1ccc(F)cc1,-10,1,4,2,3,-10,·,-2,
CCc1ccc2oc(C(=O)NC3CCS(=O)(=O)C3)cc(=O)c2c1 (stereo not given),10,1,1,-7,-10,-8,i,·,
COc1ccc(C2C(=O)N(C3CCCCC3)CC(=O)N2C2CCCCC2)cc1 (stereo not given),-3,1,-6,2,·,7,i,-11,
NC(=O)CCS(=O)(=O)CCN1CCCCC1,4,0,-1,-14,·,0,i,-17,
Cc1cc(N2CCCC2)nc2c(C)cccc12,0,·,·,·,-8,-6,i,-7,
N#Cc1cccc2c1-c1ccccc1/C2=N/NC(N)=S,0,-6,-3,·,·,-4,i,·,
Cc1csc(NC(=O)CCn2c(=O)oc3ccc(Cl)cc32)n1,-2,5,-2,-7,4,-8,i,-21,
O=S1(=O)CCC(n2nccc2-c2ccccc2)C1 (stereo not given),10,2,4,-18,12,5,i,-7,
CCOc1ccc(NC(=O)CSc2nc(O)c(C)c(=O)n2-c2ccc(F)cc2)cc1,0,5,2,-6,-1,1,i,0,
CCOC1(/N=C(\C)NS(=O)(=O)c2ccc(Cl)cc2)C(C)=CC(=O)C=C1C,-6,1,5,·,11,2,i,-12,
CCOc1ccc(NC(=O)Cn2nnc(-c3ccccc3F)n2)cc1,-6,1,0,-8,·,-2,i,6,
Brc1cccc(CN2CCCCCCC2)c1,23,-6,5,-13,·,4,i,-3,
COCCn1cnc2c(c1=O)c1nc3ccccc3nc1n2/N=C/c1cccc(OC)c1,-4,-6,-11,·,-10,-2,i,18,
COc1ccc(CNC(=O)c2ccc(Br)o2)cc1,-1,2,-4,-2,-13,6,i,9,
COc1ccc(C(F)(F)F)cc1N/C=C/c1nnnn1-c1ccc2ccccc2c1,-7,0,0,·,18,-5,i,0,
CN(C)CCNC(=O)c1cccc(-c2cccc3nncn23)c1,·,1,8,-11,18,·,·,·,
O=C(Nc1cccc(O)c1)c1noc2c1CCc1ccccc1-2,8,-3,-6,-55,·,7,i,-8,
CCN1CCCC1CNC(=O)Cn1ncc2c(=O)oc3ccc(C)cc3c21 (stereo not given),2,2,1,-19,17,-7,i,-15,
C#Cc1cccc(NC(=O)CSc2nnc(-c3ccc(C(F)(F)F)cn3)o2)c1,2,2,2,·,-57,72,i,-2,eIF4H FP inh retest=2;PABP FP inh retest=12
COc1ccc(C)cc1NC(=O)CN(C)S(=O)(=O)c1cnc[nH]1,4,9,0,-17,·,0,i,-32,
CC(=O)N1CCc2cc(S(=O)(=O)CCC(=O)N3CCN(c4ccccn4)CC3)ccc21,-2,0,-3,-13,·,-3,i,·,
Cc1ccc(NC(=O)CNCc2cccs2)c(Br)c1,10,4,1,-7,-15,3,i,-10,
CC(C)CN(C1CCS(=O)(=O)C1)S(=O)(=O)c1ccc(C(C)C)cc1 (stereo not given),·,0,-2,-12,21,·,i,-7,
CCOCCCNC(=O)c1ccccc1OC1CCN(S(C)(=O)=O)CC1,0,1,5,·,-1,-7,i,-10,

# Reprinted from the part before: 2 entries, then new ones.
SMILES,PABP FP inh,MT1-MMP act inh,MT1-MMP act inh RFP,UUG fidelity,HIV Env fusion,eIF4H FP inh,Rce1 inhib,CSC inhib,others
CC(C)CN(C1CCS(=O)(=O)C1)S(=O)(=O)c1ccc(C(C)C)cc1 (stereo not given),·,0,-2,-12,21,·,i,-7,
CCOCCCNC(=O)c1ccccc1OC1CCN(S(C)(=O)=O)CC1,0,1,5,·,-1,-7,i,-10,
COc1ccccc1NC(=O)/C=C\c1ccco1,6,-4,3,-1,-29,6,i,-6,
Cc1ccc(-c2csc(N3CCN(CCCn4c(-c5ccncc5)nc5ccccc54)CC3)n2)cc1,-7,3,-27,-3,53,-8,i,-36,
C=CCN(c1ccccc1OC)S(=O)(=O)c1cccc(C(=O)NC2=NCCS2)c1,·,4,-4,-5,-26,·,·,1,
CC(=O)Nc1ccc(NCC(=O)c2ccccc2)cc1,9,1,3,-4,-2,6,i,-8,
CN(C)c1nc(N)nc(CSc2nnnn2C)n1,-4,-1,3,-15,·,-10,i,13,
C=CCC1(O)C(=O)Nc2ccccc21 (stereo not given),10,2,3,-16,·,-4,i,4,
Cc1cc(C)n(C(=O)c2cccc(S(=O)(=O)N3CCCCC3)c2)n1,13,-4,-1,·,-10,8,i,0,
COc1ccc(OC)c(NC(=O)COC(=O)Cn2nnc(-c3ccccc3)n2)c1,·,1,5,-1,0,·,·,·,
CC(CC(F)(F)F)N1CCC(n2nccc2NC(=O)CCCc2ccccc2)CC1 (stereo not given),-2,-3,1,0,-7,9,i,-5,
Cc1ccc(Br)c(NS(=O)(=O)c2cccc(C(=O)N3CCNC(=O)C3)c2)c1,·,2,-1,27,·,·,·,-15,
CCOC(=O)C(C)C1(O)c2ccccc2-c2ncccc21 (stereo not given),1,6,0,-18,-34,-4,i,-12,
O=C(N/N=C/c1cccs1)C(=O)Nc1cccc(Cl)c1,36,3,-5,·,-19,4,i,5,
CC(NC(=O)Cc1ccsc1)c1ccc(S(N)(=O)=O)cc1 (stereo not given),2,13,6,-11,·,-3,i,-13,
Cc1c(Cl)cccc1N(CC(=O)N1CCCCCC1)S(C)(=O)=O,-2,2,-1,-9,·,9,i,-9,
COc1cccc(NC(=O)CN(C)CC(=O)Nc2cccc(C(F)(F)F)c2)c1,-4,3,-1,5,17,-4,i,6,
Cc1nc2ccc(C(=O)Nc3ccccc3Cl)cc2s1,-12,-2,1,-9,-17,-9,i,-5,
CCOC(=O)C(NCCc1ccc(F)cc1)(NC(=O)CC)C(F)(F)F (stereo not given),-12,1,2,·,-23,6,i,3,
O=C(c1ccc2c(c1)OCO2)C1CCCN(C(=O)Nc2ccc(F)cc2F)C1 (stereo not given),-10,6,-2,·,-1,-8,i,-3,
COc1ccccc1N1C(=O)c2ccccc2NC1c1ccc(O)cc1 (stereo not given),12,0,1,0,9,0,i,-7,
Cc1cc2c(c(CO)c1CCO)C(=O)[C@@H](C)[C@@H]2O,·,3,4,-11,-4,·,·,11,
O=C(CSc1ncnc2scc(-c3ccc(F)cc3)c12)c1ccc2c(c1)OCCO2,2,-6,-5,·,5,-12,i,-4,
Cc1cccnc1NC(=O)c1ccc(S(=O)(=O)N2CCCCC2)cc1,·,2,1,·,-261,·,i,-12,
O=C(Nc1ccccn1)c1ccc(S(=O)(=O)N2CCCCCC2)cc1,·,-1,-6,·,-18,·,i,6,
Cc1ccc(S(=O)(=O)N2CCN(CC(O)CN3CCOCC3)CC2)cc1 (stereo not given),·,3,6,-7,-25,·,·,44,
CN1CCN(C(=O)CSc2nc(-c3cccs3)ccc2C#N)CC1,44,-9,5,3,·,26,i,-9,
Cc1cccc(S(=O)(=O)NC(=O)C2(C)CCN2C(=O)Cc2ccsc2)c1 (stereo not given),·,-2,2,-6,-2,·,·,·,
COc1ccc(S(=O)(=O)NCC2CCCN(C(=O)CNC(C)=O)C2)cc1 (stereo not given),4,1,0,·,21,-6,i,14,
CCOC(=O)CSc1nc2c(sc(=S)n2-c2ccc(CC)cc2)c(=O)[nH]1,10,10,-6,-8,15,0,i,·,
O=C(CSc1nc2scc(-c3ccccc3)c2c(=O)[nH]1)N1CCOCC1,-2,-2,-4,-9,47,-11,i,·,
C[C@H](CCC(=O)NCC(=O)O)[C@H]1CC[C@H]2[C@@H]3[C@H](O)C[C@@H]4C[C@H](O)CC[C@]4(C)[C@H]3C[C@H](O)[C@]12C,0,-2&-2&-2,0&2&-1,-25&3&-7,-6&-15&40,4,i,-5&-4&0,
CCOc1cccc2cc(C(=O)Nc3ccccc3-c3ccccc3)c(=O)oc12,12,-4,3,-3,7,-14,i,24,
COc1cc2ccccc2cc1C(=O)Nc1ccc(C)cn1,-3,-1,-3,-6,-103,-2,i,6,
COc1ccc(N(CC(=O)NCc2ccccc2OC)S(=O)(=O)c2ccccc2)cc1,3,1,-2,-8,9,2,i,-3,
CC1(C)CC(=O)C=C(NC2CCCCC2)C1,·,7,7,-16,0,·,i,-10,
CC(Sc1nnnn1-c1ccc(O)cc1)C(=O)NNC(=O)c1ccc(F)cc1 (stereo not given),·,2,-7,-1,8,·,·,·,
Cc1ccc(N=Cc2c(O)n(-c3ccc4c(c3)OCO4)c(=O)c3ccccc23)cc1,-1,-3,-1,·,·,-15,i,22,
C#CCOC(=O)CCCC(=O)NCCCCCCCC,0,·,·,·,14,-17,i,-6,
CCCc1[nH][nH]c(=O)c1C(c1ccc(Cl)cc1)C(C#N)C#N (stereo not given),0,-13,-1,-12,·,2,i,0,
O=c1[nH]cnc2c1nc(NCc1ccccc1)n2C1O[C@@H](CO)[C@H](O)[C@@H]1O (stereo not given in full),-1,1,3,·,-15,11,i,-1,

# Not all compounds are listed (hit frequency here may not be typical).
